Compound activity (PubChem)
Vaccinia Venus: inhibitors of vaccinia virus (Venus reporter); Potency, µM (highest dose often 36.5 µM), inactives show top-dose activity change, negative = inhibition, usual class: inhibitors; Vaccinia virus Venus reporter expression, fluorescence; actives 0.46% (n = 330,000); active means well fitted inhibition curve with a large enough effect; inconclusive means small, poorly fitted or top-dose-only effect; inactive means no such curve, though single readings can be large or run the other way; tested in A549 cells; also: nearly all actives have a fitted effect of over 30% in size; inactives centre near -10
Vaccinia mCherry: vaccinia inhibition (mCherry reporter). Vaccinia virus mCherry reporter infection, fluorescence; about a quarter of the inactives have no number. Potency, µM (highest dose often 36.5 µM), for the others: at the highest dose activity change, negative = inhibition, hits mostly inhibitors. actives 0.63% (n = 310,000); active = well fitted inhibition curve with a large enough effect; inconclusive = small, poorly fitted or top-dose-only effect; inactive = no such curve, though single readings can be large or run the other way; tested in A549 cells; also: nearly all actives have a fitted effect of over 35% in size; inactives centre near -10
Numbers without * were called inactive; i = inactive; ? = inconclusive; · = no result given; [ ] = dose if it differs, or a comment. % is scaled to controls: 0 for no effect and ±100 for the full control effect; potency is read from the fitted curve at half-maximal effect.

#	smiles	Vaccinia Venus	Vaccinia mCherry
1	COc1ccc(C)cc1Nc1nc(-c2c[nH]c3ccccc23)cs1	7.3%	-16.4%
2	OC[C@@H](O)[C@H](O)C(/C=N/Nc1ccccc1)=N\Nc1ccccc1	-27.6%	-20.4%
3	Cc1cc2c(cc(C(=O)N3CCC(C(=O)NC4CCCC4)CC3)n2Cc2c(F)cccc2Cl)o1	?	?
4	CCCCCCCCNS(=O)(=O)CCNC1CC1	-8.2%	-3.1%
5	Cc1ccc(OCCC(=O)OCC(=O)NC2CCCCC2)cc1	-0.3%	i
6	Cn1nc(C(F)(F)F)cc1-c1ccc(S(N)(=O)=O)s1	-1.3%[7.34 µM]	-1.0%[7.34 µM]
7	COc1ccc(S(=O)(=O)c2cn(Cc3ccccc3)c3cc(F)c(F)cc3c2=O)cc1	-10.3%	-7.3%
8	O=C(COc1ncnc2ccccc12)Nc1ccc(S(=O)(=O)N2CCOCC2)cc1	-14.2%	i
9	CC(=O)O[C@]1(C)CC[C@]23CC1C(C)(C)C2CC[C@@H]3C (some centres not stated)	-15.2%	-7.4%
10	CCc1ccc(CN(Cc2cn[nH]c2-c2ccc(OC)cc2)C(=O)Nc2ccc(Br)cc2)cc1	?	-24.0%
11	COc1ccc(CCNC(=O)CSc2nc(-c3ccc(F)cc3)cc(C(F)(F)F)n2)cc1OC	-1.3%	-18.8%
12	COc1ccc(CN2CCOc3ccc(CN4CCCCC4CO)cc3C2)c(OC)c1 (configuration not stated)	-2.7%	-5.3%
13	COCc1cc(C)nc2sc(C(=O)Nc3ccccc3C)c(N)c12	-7.2%	-18.6%
14	Cc1nc(Nc2ccccc2F)c2oc3ccccc3c2n1	-10.7%	-18.2%
15	Fc1ccc(N2CCN(Cc3ccccn3)CC2)cc1	-2.2%	i
16	CC1(C(=O)NCc2cccnc2)CCC(=O)N1Cc1cccs1 (configuration not stated)	-7.4%	10.6%
17	O=C1CC(N2CCSCC2)C(=O)N1c1ccc(F)cc1 (configuration not stated)	-9.6%	-11.7%
18	O=[N+]([O-])c1ccc(Oc2cccc(F)c2)c2ccncc12	-28.9%	·
19	COc1cc(/C=C(\C#N)C(=O)Nc2cccc(C(=O)O)c2)ccc1OCc1ccc(C)cc1	-2.9%	-17.4%
20	COc1ccc(CC2(CO)CCN(Cc3cccc4nccnc34)CC2)cc1	2.3%	5.2%
21	O=C(NCC1CC1)c1onc(CSc2ccncc2)c1C(=O)NCC1CC1	-19.0%	-32.6%
22	O=CN1CCN(C(=O)c2ccc3c(c2)OCO3)CC1	-4.5%	i
23	COc1ccc(NC(=O)Cn2cc(C(=O)c3ccncc3)c(=O)c3cc(C)ccc32)cc1Cl	-4.0%	-10.4%
24	O=C(O)C1CCCCN1S(=O)(=O)c1ccccc1 (configuration not stated)	5.6%	-2.7%
25	N#Cc1ccc2ccn(CC(=O)N3CCCc4ccccc43)c2c1	-10.6%	i
26	NC(=O)Cn1c(=O)n(CCc2ccccc2)c(=O)c2c3c(sc21)CCCC3	-2.2%	-9.1%
27	COc1ccc(N2C(N)=C(C#N)C(c3cc(CN4CCOCC4)cs3)C3=C2CCCC3=O)cc1 (configuration not stated)	0.1%	-4.0%
28	Cc1ccc(CNC(=O)Cn2c(=O)n(-c3ccc(Cl)cc3)c(=O)c3c(C)c(C)sc32)cc1	1.0%	-7.6%
29	Cc1ccc(-c2n[nH]c(=S)n2/N=C/c2c(C)nn(-c3ccccc3)c2C)cc1	-8.3%	-10.7%
30	CCOc1ccc(C(=O)N[C@H](C(=O)Nc2ccccc2OC)C(C)C)cc1	-0.9%	28.7%

2 entries from above, as labelled records:
[25] N#Cc1ccc2ccn(CC(=O)N3CCCc4ccccc43)c2c1
  Vaccinia Venus: -10.6%	Vaccinia mCherry: i
[26] NC(=O)Cn1c(=O)n(CCc2ccccc2)c(=O)c2c3c(sc21)CCCC3
  Vaccinia Venus: -2.2%	Vaccinia mCherry: -9.1%

Continuation:
#	smiles	Vaccinia Venus	Vaccinia mCherry
31	Cc1ncsc1CCOC(=O)c1ccccc1	-3.4%	i
32	COc1ccccc1NC(=O)CSc1oc(-c2cccs2)nc1S(=O)(=O)c1ccc(C)cc1	-8.5%	-7.3%
33	COc1cccc(/C=N/NC(=O)c2ccc(N3CCCC3=O)cc2)c1	-20.7%	-6.0%
34	O=c1c(Cl)c(Nc2cccc(Cl)c2)cnn1-c1nc2ccccc2s1	-16.3%	-20.5%
35	Cc1[nH]c2ccc(Br)cc2c(=O)c1CN1CCOCC1	-2.8%	-9.3%
36	COc1c(Br)cc(Br)cc1/C=C1/C(=O)N=C(N)N1C	-12.7%	-8.4%
37	CCn1c(COc2ccc(Cl)cc2)nnc1SCC(=O)Nc1ccc2c(c1)OCCO2	-20.0%	-10.1%[1.46 µM]
38	COc1ccccc1/C=C/C(=O)NNC(=O)c1cc(C)oc1C	-14.7%	-17.1%
39	CC(=O)c1c(C)n(S(=O)(=O)c2ccc(Cl)cc2)c2ccc(NS(=O)(=O)c3ccc(Cl)cc3)cc12	-21.1%	-2.6%
40	COc1ccnc(Oc2ccc(F)cc2)c1C(=O)N/C=N/OCc1cccc(F)c1	8.4%	-3.3%
41	COc1cccc(CNC(=O)CCCn2nc(C)c3c(C)n(-c4ccccc4)nc3c2=O)c1	-28.8%	-4.4%
42	Cc1cccc(NC(=S)NC(=O)CCc2ccccc2)c1	-23.7%	·
43	CCCS(=O)(=O)Nc1c(C(=O)OC)[nH]c2ccccc12	-7.7%	-24.2%
44	CCOC(=O)c1cccc(NC(=O)CN2C(=O)c3ccccc3Sc3ncccc32)c1	-7.6%	-17.6%
45	CCCCN(C)CCNC(=O)CN1C(=O)CSc2ccc(S(=O)(=O)N3CCCCC3)cc21	3.2%	-4.3%
46	O=C(Nc1cccc(C(=O)N2CCOCC2)c1)c1ncn[nH]1	-19.6%	-27.5%
47	CCC(C)Nc1cc(C)c(C#N)c2nc3ccccc3n12 (configuration not stated)	?	?
48	CC1=C(C(=O)Nc2c(C)cc(C)cc2C)C2(CCN(C(C)C)CC2)OC1=O	-3.2%	-9.7%
49	CC1CCN(CCCNC(=O)c2n[nH]c(=O)c3ccccc23)CC1	-3.9%	-6.7%
50	COc1ccccc1Nc1nc(-c2sc(NC(=O)C(C)(C)C)nc2C)cs1	-29.0%	?
51	CCCOc1ccc(N2C(=O)CC(N(CCOC34CC5CC(CC(C5)C3)C4)C(C)=O)C2=O)cc1 (configuration not stated)	-10.5%	-13.3%
52	CCNC(=O)Cc1ccc(Br)cc1	-28.9%	·
53	CCC(=O)N1c2ccccc2CC1C(=O)NCCN1CCN(c2cccc(Cl)c2)CC1 (configuration not stated)	3.3%	-14.1%
54	O=C(NCc1ccccc1)C(=O)NCC(c1ccc2c(c1)OCO2)N1CCOCC1 (configuration not stated)	-4.7%	0.2%
55	CCn1nnnc1SCC(=O)N1CCOCC1	7.2%	-13.7%
56	O=C1NC(=S)S/C1=C1\Sc2ccccc2N1CCCS(=O)(=O)O	-9.8%	i
57	O=C(CCc1ccccc1)Nc1nc2ccc(S(=O)(=O)N3CCOCC3)cc2s1	?	·
58	COc1ccc(-c2nc3c(C#N)c[nH]n3c2NC2CCCC2)c(OC)c1	-18.4%	-12.0%
59	O=C(O)COc1ccc(-c2nnn(Cc3ccccc3F)n2)cc1	0.0%	·
60	C/C=N\NC(=O)CNC(=O)CNC(=O)c1ccccc1	-4.9%	-2.1%

Continued (2 carried over from the part before).
#	smiles	Vaccinia Venus	Vaccinia mCherry
59	O=C(O)COc1ccc(-c2nnn(Cc3ccccc3F)n2)cc1	0.0%	·
60	C/C=N\NC(=O)CNC(=O)CNC(=O)c1ccccc1	-4.9%	-2.1%
61	O=C(O)C1CCC(CN(Cc2cccc(Br)c2)C(=S)Nc2ccccc2F)CC1 (configuration not stated)	-11.2%	i
62	O=C(/C=C/c1cccs1)c1cc(Br)ccc1OC(=O)N1CCOCC1	?	?
63	O=C(NC(=O)c1c(F)cccc1F)Nc1cccc(Oc2ncc(Cl)cn2)c1	-6.3%	-14.7%
64	CC(=O)Oc1ccc(/C=C(\NC(=O)c2ccco2)C(=O)NCc2ccccc2)cc1	-10.3%	-7.3%
65	CCOC(=O)c1ccc(NC(=S)N2CCN(c3ccc(N4CCOCC4)nn3)CC2)cc1	-10.1%	-0.2%
66	CCc1ccc(NCc2cc3ccc(OC)cc3n(CC(=O)Nc3ccc(F)cc3F)c2=O)cc1	27.2%	19.0%
67	Cc1ccc(S(=O)(=O)N(C)CC(=O)N2CCCCCCC2)cc1	-15.4%	-3.8%
68	Cc1ccc(-c2nnc(Nc3ccccc3)c3ccccc23)cc1S(=O)(=O)N1CCN(C)CC1	-16.2%	-28.6%
69	CCOC(=O)C1=C(Nc2ccccc2)CC(C)(O)C(C(=O)OCC)C1c1ccccc1 (configuration not stated)	-2.7%	-11.0%
70	O=c1c(N=Nc2ccc(O)cc2)c(-c2ccccc2)[nH]n1-c1ccc([N+](=O)[O-])cc1	-8.7%	-4.3%
71	O=C(O)c1ccc(C[n+]2c(-c3ccccc3)csc2Nc2ccccc2)cc1	3.8%	-7.6%
72	CCn1c(SCC(=O)Nc2cc(C)nn2-c2ccccc2)nnc1-c1cccs1	-9.8%	i
73	CCCCn1c(O)c(N=Nc2ccccn2)c2ccccc21	-14.7%	-29.9%
74	CC1=C(C(=O)Nc2ccccc2C)C(c2cccs2)n2nc(SCc3cc(C)ccc3C)nc2N1 (configuration not stated)	-24.4%	?
75	COc1ccc(-c2noc(COc3ccccc3OC)n2)cc1OC	-9.9%	-22.5%
76	CCN1CCN(CCNC(=O)c2ccc(CS(=O)(=O)c3c(Cl)cccc3Cl)o2)CC1	-4.6%	-1.2%
77	O=C(Cc1csc(NC(=O)Nc2ccc(Cl)cc2)n1)NCc1cccnc1	-29.6%	?
78	Cn1cc(C(=O)c2ccccc2C(=O)O)cc1C(=O)C(Cl)(Cl)Cl	-4.4%	i
79	O=C(c1ccc(CN2CCc3ccccc3C2)cc1)N1CCN(c2ccccc2)CC1	-6.8%	i
80	COc1cccc(NC(=O)CC2S/C(=N\S(=O)(=O)c3ccccc3)N(c3ccccc3)C2=O)c1 (configuration not stated)	-4.4%	-6.9%
81	COc1ccc(-c2cn3nc(SCC(=O)NC4CCCCC4)ccc3n2)cc1	-9.1%	i
82	OCCC1CN(Cc2nc3ccc(F)cc3[nH]2)CCN1C1CCCC1 (configuration not stated)	-1.5%[7.34 µM]	-14.1%[7.34 µM]
83	COc1ccc(CNC(=O)C(c2ccco2)N(Cc2cccs2)C(=O)Cc2cccs2)cc1 (configuration not stated)	-15.4%	-24.7%
84	Cc1ccccc1C(=O)NC(C)c1nnc2n1CCN(Cc1ccc(F)cc1)CC2 (configuration not stated)	1.5%	-2.0%
85	Cc1ccc(S(=O)(=O)N2CCc3cc(C(=O)Nc4ccc(Cl)cc4C)ccc32)cc1	-12.8%	-11.5%
86	C=CCN1C(=O)C2C(C(=O)NC)C3(C)C=CC2(O3)C1C(=O)NCc1ccc(OC)cc1 (configuration not stated)	-24.6%	-17.6%
87	OCc1nc2ccccc2n1CCCOc1ccccc1	-8.1%	-14.1%
88	O=C(O)c1ccc(-n2cncn2)c([N+](=O)[O-])c1	-2.1%	-14.7%
89	O=C(NN1C(=O)/C(=C/c2ccc(O)c([N+](=O)[O-])c2)SC1=S)c1ccccc1Cl	17.5%	3.7%
90	N/C(=N\OC(=O)CC1CCCCC1)c1ccccn1	-19.7%	i

Single records, from the list above. Values in the order: Vaccinia Venus | Vaccinia mCherry
Cc1ccccc1C(=O)NC(C)c1nnc2n1CCN(Cc1ccc(F)cc1)CC2 (configuration not stated) as listed: 1.5% | -2.0%
C=CCN1C(=O)C2C(C(=O)NC)C3(C)C=CC2(O3)C1C(=O)NCc1ccc(OC)cc1 (configuration not stated) as listed: -24.6% | -17.6%
COc1ccc(-c2cn3nc(SCC(=O)NC4CCCCC4)ccc3n2)cc1 as listed: -9.1% | i
N/C(=N\OC(=O)CC1CCCCC1)c1ccccn1 as listed: -19.7% | i
OCc1nc2ccccc2n1CCCOc1ccccc1 as listed: -8.1% | -14.1%

An unsorted share of the library (roughly 0.88% active in at least one column).
